MgrA DNA FP = alters Staphylococcus aureus MgrA binding to DNA; fluorescence polarization; inhibition, %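 (about 10 µg/mL by stock and volumes)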; 84,000 tested, 0.13% active; AID 602314;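 active = above 50% in either of two replicates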;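 also: 0% = protein plus DNA without compound and 100% = DNA alone without protein; higher means less MgrA bound to DNA so lower polarization; one replicate is shown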
S aureus helic = S. aureus DNA helicase inhibition. purified S. aureus helicase, fluorescence unwinding assay; about half of the hits fall short of the stated cut. inhibition, %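 (tested at about 80 µM)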. 120,000 tested, 0.05% active. AID 485395;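 active = both duplicates at 50% or more, or one of them with a favoured structure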;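 also: 0% = mean of negative control wells and 100% = mean of positive control wells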
* marks the source's active call; other numbers are inactive results; x = no result given. This is a subset; rates above refer to the full screens.

S aureus helic,MgrA DNA FP,SMILES
3.0,-2.9,Cc1ccc(S(=O)(=O)NC2CCCCC2)cc1-c1nnc2c3ccccc3c(C)nn12
8.0,x,O=C(CNc1ccccc1N1CCCCC1)Nc1ccc(F)cc1Cl
2.0,x,CN(Cc1ccccc1)C(=O)c1ccc2nc(N3CCCCC3)sc2c1
x,1.1,COC(=O)c1cc(=O)nc2n1C1O[C@H](CO)C(O)[C@H]1O2 (stereo partly specified)
-10.0,x,O=C(O)c1cc(-c2ccc(N3CCOCC3)cc2)nn1-c1ccc(F)cc1
x,0.2,Cn1c(SCC(=O)c2ccc3c(c2)OCCO3)nnc1C(F)(F)F
x,0.1,CN1[C@@H]2CC[C@H]1CC(OC(=O)[C@@H](CO)c1ccccc1)C2 (stereo partly specified)
6.0,x,O=C(c1cnn2ccccc12)N1CCN(C2CCCCC2)CC1
x,-2.5,COc1ccc2c(c1)CCC(/C=N/O)=C2Cl
x,1.1,CC(C)(C)c1cc(-c2nnc(C3CC3)o2)n(Cc2ccc(F)cc2)n1
17.0,x,Cc1ccc(C)c(-n2c(=O)c3ccccc3n3c(SCc4ccc(C#N)cc4)nnc23)c1
x,0.5,CN(C)c1ccc(C(=O)Nc2ccc(Oc3c(Cl)cccc3Cl)nc2)cc1

S aureus helic,MgrA DNA FP,SMILES
-2.0,x,COc1cccc(N2CC(NC(=O)NC(C)(CO)CO)CC2=O)c1 (stereo unspecified)
x,1.5,Cc1ccc(-c2csc3ncnc(NCCN4CCNC4=O)c23)cc1
-26.0,x,Cc1csc(NC(=O)CSc2ncnc3ccccc23)n1
22.0,2.9,Cc1ccc2c(c1)sc1nc(-c3cc4ccccc4oc3=O)cn12
0.0,2.6,c1ccc(-n2nnnc2NC2CCCCC2)cc1
36.0,x,C=CCC1CCCCC12NC(=O)N(c1ccccc1)N2 (stereo unspecified)
15.0,17.0,CN1CCN(c2oc(COc3ccccc3F)nc2C#N)CC1
x,-0.2,O=C(Nc1ccc(Cl)cc1Cl)c1cnccn1
3.0,-1.0,CCC(=O)Nc1cc(OC)c(OC)c(OC)c1
15.0,0.5,CCCC(NC(=O)c1ccc(Br)o1)c1nc2ccccc2[nH]1 (stereo unspecified)
-13.0,0.2,CC(C)(O)c1cn2ccccc2n1
-9.0,x,CCN(c1ccccc1)S(=O)(=O)c1ccc(Oc2ccc(-n3ccnc3)cc2)nc1

Among those listed so far, nine contain four or more nitrogen atoms.
S aureus helic,MgrA DNA FP,SMILES
3.0,-2.9,Cc1ccc(S(=O)(=O)NC2CCCCC2)cc1-c1nnc2c3ccccc3c(C)nn12
6.0,x,O=C(c1cnn2ccccc12)N1CCN(C2CCCCC2)CC1
x,1.1,CC(C)(C)c1cc(-c2nnc(C3CC3)o2)n(Cc2ccc(F)cc2)n1
17.0,x,Cc1ccc(C)c(-n2c(=O)c3ccccc3n3c(SCc4ccc(C#N)cc4)nnc23)c1
x,1.5,Cc1ccc(-c2csc3ncnc(NCCN4CCNC4=O)c23)cc1
-26.0,x,Cc1csc(NC(=O)CSc2ncnc3ccccc23)n1
0.0,2.6,c1ccc(-n2nnnc2NC2CCCCC2)cc1
15.0,17.0,CN1CCN(c2oc(COc3ccccc3F)nc2C#N)CC1
-9.0,x,CCN(c1ccccc1)S(=O)(=O)c1ccc(Oc2ccc(-n3ccnc3)cc2)nc1

Remaining list, next part.
S aureus helic,MgrA DNA FP,SMILES
14.0,-1.6,N[n+]1cnn(CC(=O)c2ccc(Cl)cc2)c1
6.0,-1.5,O=C(SC1=NCCS1)c1cccc(Cl)c1
6.0,x,O=C1CCc2cc(S(=O)(=O)N3CCCC3)cc3c2N1CCC3
8.0,x,O=C(Cc1nc2ccccc2s1)c1ccc(O)cc1O
6.0,-0.8,CCOc1ccc2nc(NCCNC(=O)c3cc(OC)c(OC)c(OC)c3)c(C#N)cc2c1
4.0,x,C=CCN1C(=O)/C(=C/c2ccco2)S/C1=N/c1nccs1
-1.0,x,CCc1nnc(NC(=O)c2ccc3c(c2)S(=O)(=O)c2ccccc2C3=O)s1
12.0,x,CCCN(CCC)Cn1nc(-c2ccc3c(c2)OCO3)oc1=S
16.0,x,C=CCOc1ccc(-c2nc3c(sc(=S)n3CC=C)c(=O)[nH]2)cc1OC
x,-1.4,CNC(=O)c1cccc2cccc(I)c12
3.0,-2.1,CC1CCN(C(=O)Cn2nc(-c3ccc(Cl)cc3)ccc2=O)CC1
-23.0,x,COc1ccc2c(CNC3CCCCCC3)c(C(=O)O)[nH]c2c1

S aureus helic,MgrA DNA FP,SMILES
2.0,x,Cc1cc2cc(CNC(=O)c3cccs3)ccc2n1C
-14.0,x,Cc1cccc(-c2noc(CCCC(N)=O)n2)c1
x,-0.6,CC(C)(C)OC(=O)N1CCN(C(=O)c2ccc(Oc3cccnc3)o2)CC1
x,-1.1,COc1ccc(/C(=C\c2ccc(Cl)cc2)C(=O)O)cc1OC
7.0,4.2,Nc1ccccc1C(=O)CSc1ccccn1
13.0,0.9,COC(=O)c1sc(=S)n(-c2cc(OC)ccc2OC)c1N
-59.0,x,COc1ccc(-n2cc3c(c(C#N)c2=N)CC(C)(C)CC3=O)c(OC)c1
1.0,2.4,Cc1cc(NC(=O)CSc2ccccc2)no1
x,-2.9,CC1=C(C(=O)OCCc2ccccc2)C(c2cc3c(cc2Br)OCO3)C2=C(CCCC2=O)N1 (stereo unspecified)
x,-0.9,O=C(c1ccc2c(c1)CCC2)C1CCC1
x,1.8,O=C(CC(=O)Nc1ccccn1)Nc1ccccn1
x,4.7,CCOC(=O)N1CCc2c(sc(N)c2C(=O)c2ccc(OC)cc2)C1

S aureus helic,MgrA DNA FP,SMILES
2.0,3.3,CC(=O)N/C(N)=N\c1nc(C)c2ccc(C)cc2n1
x,3.1,Cc1ccc(-c2ccc(/C=C3\Sc4ccccc4C3=O)o2)cc1Cl
-5.0,x,Cc1nnc(SC2CCNCC2)s1
19.0,x,COc1ccc(Nc2nccc(-c3ccc(N)cc3)n2)cc1
2.0,-2.5,Cc1cc(=O)nc2c3ccccc3n(CC(=O)N3CCCC3)n12
-14.0,-0.2,O=C(NCCCn1ccnc1)c1ccccc1OCc1ccccc1
-2.0,x,Cc1nn(C2CCS(=O)(=O)C2)c(Cl)c1/C=C/C(=O)OCn1nnc2ccccc2c1=O (stereo unspecified)
4.0,x,CC(C#N)OC(=O)Cn1cc(C(F)(F)F)ccc1=O (stereo unspecified)
-6.0,-1.5,CN1C(=O)C2CN(CCc3ccccc3)CNC2N(C)C1=O (stereo unspecified)
-1.0,x,O=C(CNC(=O)c1ccccc1F)OCc1nc2ccc(Cl)cc2n1CCO
x,-1.6,O=S(=O)(Nc1cccc2ccccc12)c1cccs1
x,0.7,N#Cc1cccc(Nc2ncnc(N)n2)c1

S aureus helic,MgrA DNA FP,SMILES
x,-0.6,CC(C)c1ccc(NC(=O)c2ccc(-c3csnn3)cc2)cc1
x,-0.5,O=[N+]([O-])c1cc(C(F)(F)F)ccc1NCCO
-14.0,0.7,O=C(CCn1c(=O)oc2ccccc21)N1CCc2ccccc21
-10.0,x,COC(=O)c1ccc(N)s1
7.0,-0.8,Cc1cc(C)n2nc(S(=O)(=O)Nc3ccccc3C)nc2n1
4.0,1.1,O=C(O)CC1SC(=Nc2cccc(C(F)(F)F)c2)NC1=O (stereo unspecified)
7.0,-2.9,O=C(O)CCCOc1ccc(Cl)cc1
2.0,1.2,O=C(c1cccc(Cl)c1)N1CCOCC1
0.0,0.1,Cc1cc(C)cc(N2C(=O)CC(n3ccnc3)C2=O)c1 (stereo unspecified)
-5.0,0.2,CN(C)CCOC(=O)CC12CC3CC(C1)CC(CC(=O)OCCN(C)C)(C3)C2
-3.0,x,CN(C(=S)Nc1cccnc1)c1ccc(O)cc1
7.0,9.6,Cc1ccc(Sc2c(C(=O)NCc3ccco3)[nH]c3ccccc23)cc1

S aureus helic,MgrA DNA FP,SMILES
5.0,2.3,CCn1c(C2CC(=O)N(C(C)(C)C)C2)nc2ccccc21 (stereo unspecified)
2.0,-0.9,CCCOc1ccc(C(=O)Nc2c(NC)c3ccccc3oc2=O)cc1
-5.0,x,COc1ccc(-n2ccnc2SCC(=O)NCCc2ccccc2)cc1
2.0,x,O=C(NC1CCCC1)c1c(O)nc2ccccn2c1=O
28.0,x,CCOc1ccccc1C(=O)NCc1nc(-c2ccccc2)no1
x,1.5,COC(=O)c1ccccc1NC(=O)CC#N
3.0,-0.6,c1ccc(CNc2nnnn2-c2ccccc2)cc1
11.0,-1.0,O=C(Cn1c(=O)oc2cc(S(=O)(=O)N3CCCC3)ccc21)Nc1cccnc1
x,-1.4,CCOC(=O)COc1nc(-c2cccs2)cc(C(F)(F)F)c1C#N
19.0,x,COCCN1C(=O)c2ccccc2C(C(=O)Nc2ccc3c(c2)OCCO3)C1c1c[nH]c2ccccc12 (stereo unspecified)
16.0,5.3,CCc1ccc(NC(=O)C(Cc2ccccc2)n2cccc2)cc1 (stereo unspecified)
0.0,x,O=C(COc1ccccc1)Nc1ccc(-n2nncc2-c2ccccc2)cc1

S aureus helic,MgrA DNA FP,SMILES
0.0,x,O=C(Nc1ccc(S(=O)(=O)NCc2ccco2)cc1)c1ccc(=O)[nH]n1
-4.0,-0.3,O=C(CCc1ccccc1)NCCN1CCN(C(=O)CCc2ccccc2)CC1
28.0,x,CN(C)/C=N/c1sc2c(c1C#N)CCCC2
-5.0,x,CCCNC(=O)C1CCCN1 (stereo unspecified)
-23.0,x,CC1=C(C(=O)Nc2ccccc2)C(c2cccs2)C(C#N)=C(SCC(N)=O)N1 (stereo unspecified)
x,0.8,N#CC1=C(N)OC2=C(COc3ccc(F)cc32)C1c1ccc(Cl)cc1 (stereo unspecified)
1.0,x,CCC(Oc1ccc(C(C)(C)CC)c(C)c1)C(=O)O (stereo unspecified)
12.0,-1.9,O=C(CN(c1ccccc1)S(=O)(=O)c1ccccc1)N1CCCC1
-6.0,x,CCN(CC)C(=O)C1Sc2nnc(-c3ccccc3)n2NC1c1ccccc1 (stereo unspecified)
20.0,x,COCc1nn2cc(-c3ccc(Br)cc3)nc2s1
-6.0,x,O=C(CC(=O)C(F)(F)F)c1ccccc1
0.0,-1.0,N#CCC(=O)Nc1ccc(N2CCOCC2)cc1

S aureus helic,MgrA DNA FP,SMILES
7.0,x,NC(=O)c1oc2ccccc2c1NC(=O)C1COc2ccccc2O1 (stereo unspecified)
6.0,x,CC(C(=O)Nc1ccccc1)N(c1nccs1)S(=O)(=O)c1ccccc1 (stereo unspecified)
-6.0,x,Cc1cc(C)n2nc(SC/C(O)=C(\C#N)c3nc4ccccc4[nH]3)nc2n1
3.0,0.1,CCCCC(Sc1ccc2nnc(-c3ccc(OC)c(OC)c3)n2n1)C(=O)O (stereo unspecified)
-97.0,x,C=CCSc1nnc2c(n1)OC(C1CC=C(C)CC1)Nc1ccccc1-2 (stereo unspecified)
-15.0,x,N#CC1(NC(=O)CSc2nnc(COc3ccccc3F)n2-c2ccccc2)CCCCC1
8.0,-1.1,CCCC(=O)ON1C(=O)c2cccc3cccc(c23)C1=O
0.0,x,O=C(Cc1cn2ccsc2n1)N/N=C1\C(=O)c2cccc3cccc1c23
5.0,-5.0,CNC(=S)NCCN1CCCCC1
2.0,-0.6,O=C(Nc1cccc(C(F)(F)F)c1)c1cccs1
x,-1.5,CNC(=S)NC1CC2CCC1C2 (stereo unspecified)
x,-2.9,CCCCSc1nnc2c(n1)OC(c1ccccn1)Nc1ccccc1-2 (stereo unspecified)

S aureus helic,MgrA DNA FP,SMILES
18.0,x,CCN1C(=O)c2ccccc2S(=O)(=O)c2ccc(C(=O)N3CCCCC3)cc21
-3.0,1.4,c1ccc(CN2CCN(Cc3ccccc3)C2c2ccc3c(c2)OCO3)cc1
14.0,-0.8,O=C(/C=C1\Sc2ccccc2NC1=O)NCCCN1CCC(Cc2ccccc2)CC1
8.0,8.4,Oc1ccc(Cl)cc1/C=N/c1nccs1
9.0,0.9,O=C(CSc1nnc2sc3ccccc3n12)N1CCc2ccccc21
x,-0.4,CCOC(=O)c1c(-c2ccccc2)oc2c1cc(OC(=O)c1ccc(S(=O)(=O)N3CCOCC3)cc1)c1ccccc12
-15.0,x,CC(NC(=O)c1cccs1)c1ccccc1 (stereo unspecified)
3.0,x,Cc1ccc(CS(=O)(=O)CCC(=O)NCc2ccc3c(c2)OCO3)cc1
19.0,x,CC(C)C1=NN(C(=O)C(O)c2ccccc2)C(O)(C(F)(F)F)C1 (stereo unspecified)
9.0,x,CCOC(=O)C1=C(CSc2ccc(C)cc2C)NC(=O)NC1C (stereo unspecified)
x,2.7,Cc1ccc(NS(C)(=O)=O)cc1N=Cc1ccccc1O
23.0,x,O/N=C1\CC(O)(C(F)(F)F)Oc2ccc(Cl)cc21 (stereo unspecified)

S aureus helic,MgrA DNA FP,SMILES
0.0,x,CNC(=O)NCC12CC3CC(CC(C3)C1)C2
-3.0,x,COc1cc(OC)cc(C(=O)NCC(=O)OC2CCOC2=O)c1 (stereo unspecified)
1.0,x,C#CCNCc1cc(=O)n2ccsc2n1
x,-3.2,CCOC(=O)c1cc(C(C)(C)C)n(CCSC)c1C
-16.0,-1.8,Cc1cc(C(=O)O)c(=O)[nH]c1C
5.0,x,CC(C)Cc1nc(SCC(=O)Nc2ccccn2)n[nH]1
-11.0,x,CC1CCN(C(=O)c2cc3sccc3n2C)CC1
x,-1.0,CC(O)/C=C\c1cc[n+](C)cc1 (stereo unspecified)
5.0,-1.5,COc1ccc(C(=O)N(CC(=O)Nc2nn(-c3ccccc3)nc2C(N)=O)Cc2ccccc2)cc1
x,0.4,O=C(/C=C/c1ccccc1)OCCN1C(=O)c2cccc3c(N4CCOCC4)ccc(c23)C1=O
x,1.1,NC(=O)N1c2ccccc2CC(=O)c2ccccc21
x,-1.3,CC(C)N(Cc1ccccc1)S(=O)(=O)c1ccc2c(c1)CCO2
x,-1.0,COc1ccc(C(=O)COc2ccc(C)cc2NC(C)=O)cc1
7.0,0.4,CCC(NC(=O)c1cc(OC)c(OC)c(OC)c1)C12CC3CC(CC(C3)C1)C2 (stereo unspecified)
26.0,x,O=C(CSc1nnc(CN2CCCC2)n1-c1ccccc1)c1ccc2c(c1)OCO2

From PubChem BioAssay
